Compound activity as filed in PubChem BioAssay.
VACV Venus inh = inhibitors of vaccinia virus (Venus reporter) | 0.46% of 330,000 active | Vaccinia virus Venus reporter expression, fluorescence | AID 720580 | Potency, µM (doses to about 36.5 µM), without a hit: at the top dose activity change, negative = inhibition, usual class: inhibitors; active means well fitted inhibition curve with a large enough effect; inconclusive means small, poorly fitted or top-dose-only effect; inactive means no such curve, though single readings can be large or run the other way; tested in A549 cells; further: nearly all actives have a fitted effect of over 30% in size; inactives centre near -10
VACV mCherry inh = vaccinia inhibition (mCherry reporter) | Vaccinia virus mCherry reporter infection, fluorescence; about a quarter of the inactives have no number | 0.63% of 310,000 active | Potency, µM (doses to about 36.5 µM), inactives show at the highest dose activity change, negative = inhibition, hits mostly inhibitors; active = well fitted inhibition curve with a large enough effect; inconclusive = small, poorly fitted or top-dose-only effect; inactive = no such curve, though single readings can be large or run the other way; tested in A549 cells; further: nearly all actives have a fitted effect of over 35% in size; inactives centre near -10
* = called active by the depositor; i = inactive; ? = inconclusive; . = not tested or not shown; [ ] = remark or other dose. On the % scale 0 is the no-effect control and ±100 the full control effect; potency means the concentration at half of the fitted maximal effect.

SMILES	VACV Venus inh	VACV mCherry inh
Cc1cc(C)cc(C(=O)N2CC(=O)Nc3ccc(Br)cc3C2c2ccccc2)c1 (centres undefined)	-27%	?
CCOc1ccccc1NC(=O)CCC(=O)Nc1ccc2nc(N3CCN(C)CC3)cc(C)c2c1	-11%	-26%
Cc1cc(-n2c(C)cc(C(=O)CSc3nc4ccccc4c(=O)n3Cc3ccco3)c2C)no1	-12%	-9%
CSc1ccc(CNC(=O)C2(C)CCCN(C(C)C)C2)cc1 (centres undefined)	1%	2%
O=C(c1cc(-c2ccccc2)on1)N1CCCCCC1	-7%	7%
COC(=O)c1sccc1S(=O)(=O)N(CC(=O)Nc1ccccc1C)c1ccc(Cl)cc1	3%	-4%
O=C(Nc1cc(S(=O)(=O)N2CCOCC2)ccc1O)c1ccco1	-12%	-14%
COc1ccccc1N1CCN(C(=O)c2cc(-c3ccc(Br)cc3)on2)CC1	-9%	9%
NC(=O)NC(=O)COC(=O)/C=C/c1cccc(Br)c1	-15%	i
CC(=O)NCCOc1c(C)cc(S(N)(=O)=O)cc1C	9%	-5%
Cc1ccc(CNc2ccc3c(c2)ncn3C)cc1	-16%	-29%
CCN(C(=O)COC(=O)c1cc([N+](=O)[O-])ccc1N1CCCCC1)C1CCS(=O)(=O)C1 (centres undefined)	8%	-6%
Cc1ccc(NC(=O)CCNS(=O)(=O)c2ccc(Br)cc2)cc1S(=O)(=O)N1CCOCC1	-28%	-14%
C#CCN1C(=O)S/C(=C/c2cc(C)n(CC)c2C)C1=O	-15%	-6%
COc1ccc(-c2nc3ccccc3n3c(-c4ccccc4)c4c(=O)n(C)c(=O)n(C)c4c23)cc1OC	-1%	-13%
Cc1ccc(NC(=O)c2cccc(N(C)C)c2)cc1NC(=O)c1ccc(O)cc1	-15%[60.7 µM]	i
Cc1nc2ccccc2c(=O)n1/N=C/c1cccs1	-12%	-9%
O=C(NCCc1ccc(Cl)cc1)c1ccc2ccccc2n1	-9%	-9%
COc1ccc2cc(CCNC(=O)c3ccc(S(=O)(=O)N4CCOCC4)cc3)c(=O)[nH]c2c1	-23%	-4%
COc1ccc(NC(=O)C2(C)Cc3c(-c4ccccc4)ccnc3O2)cn1 (centres undefined)	-27%	?
COc1cccc(CN(C)C(c2ccccc2)c2ccccc2)c1OC	-5%	-5%
Cc1cccc(S(=O)(=O)NC(=O)C2(C)CCN2C(=O)Cc2ccccc2)c1 (centres undefined)	-4%	7%
CC(=O)Nc1c(C)nn(-c2ccccc2)c1N1CCC(C(=O)Nc2ccc(Cl)cc2C)CC1	-12%[7.34 µM]	-11%[7.34 µM]
CC(C)(C)c1ccc(OCC(=O)Nc2ccc(C(=O)OC3CCCCC3)cc2)cc1	1%	-5%
CC(C)Nc1nc(-c2ccccc2CO)c2sccc2n1	-22%	i
COc1ccc(-c2nn(-c3ccccc3)cc2C2NC(=O)NC(C)=C2C(=O)OC(C)C)cc1OC (centres undefined)	-7%	8%
Cc1cccc(N2CCN(C(=O)c3c(Cl)cnn3C)CC2)c1C	-22%	-26%
O=C(CSc1nnnn1C1CC2CCC1C2)Nc1ccnc2ccccc12 (centres undefined)	?	.
O=C(CCC(=O)N1CCSc2ccccc21)NCc1cccc(Br)c1	-8%	-10%
COc1ccc(C(=O)NCCCNC(=O)c2ccco2)cc1OC	-10%	-12%
CC(=O)Nc1ccc(CN2CCN(CCc3ccccc3)C(CCO)C2)cc1 (centres undefined)	-20%	-22%
O=C(/C=C/c1cccs1)Nc1ccc(Br)cn1	-29%	-21%
CCN(CC)CCN(Cc1cc2cc(C)ccc2[nH]c1=O)C(=S)NCc1ccco1	-22%	-21%
O=C(N=Nc1c(O)n(Cc2ccccc2)c2ccccc12)c1cc2ccccc2cc1O	-10%	i
O=C(/C=C/c1ccncc1)c1ccc(NC(=O)c2ccccc2F)cc1	-26%	i
COc1ccc(Cn2nnnc2C(c2cc3cc(C)cc(C)c3[nH]c2=O)N2CCOCC2)cc1 (centres undefined)	-9%	-17%
COC(=O)c1ccc(CN(Cc2ccc(OC)c(OC)c2)S(=O)(=O)c2cc(C(=O)Nc3cccc(C)c3)ccc2F)cc1	-9%	-8%
Cc1nnc2c(N3CCN(c4ccccc4)CC3)nc3ccc(C(=O)c4ccccc4)cc3n12	-8%	-15%
CCCSc1nnc(NC(=O)Cc2coc3cc(C)ccc23)s1	2%	-12%
CCOC(=O)c1cnc(N2CCN(c3cccc(C)c3C)CC2)c2ccccc12	-12%[7.34 µM]	-1%[7.34 µM]

Entries of single compounds as entered above:
O=C(N=Nc1c(O)n(Cc2ccccc2)c2ccccc12)c1cc2ccccc2cc1O is listed as VACV Venus inh: -10%; VACV mCherry inh: i
CC(C)Nc1nc(-c2ccccc2CO)c2sccc2n1 is listed as VACV Venus inh: -22%; VACV mCherry inh: i

(further entries)
SMILES	VACV Venus inh	VACV mCherry inh
O=C1C=CC(=Nc2ccc3c(c2)C(=O)c2ccccc2-3)O1	-12%	-27%
CCCCn1c(N)c(N(CCC(C)C)C(=O)c2ccc3c(c2)OCCO3)c(=O)[nH]c1=O	-5%	-11%
COC(=O)[C@@H](Cc1c[nH]c2ccccc12)NCc1ccc(B(O)O)cc1	-9%	13%
COc1ccc(C(=O)N2CCC(C(=O)Nc3ccc(OC)c(OC)c3)CC2)cc1	-17%	.
COc1ccc2c(c1)c(C(C)=O)c(C)n2-c1ccc(C(C)=O)cc1	-8%	i
CN(Cc1ccccc1)C(=O)c1cccc(NC(=O)c2ccco2)c1	5%	.
Cc1cc(-c2ccccc2)nc2oc3c(c12)NC(=O)CN(c1ccccc1)C3=O	-6%	-13%
Cc1nnc(SCC(=O)NC2CCCc3c2cnn3-c2ccc(F)cc2F)o1 (centres undefined)	-10%	-14%
CCOc1ccc(CCNC(=O)c2ccc3c(c2)N(Cc2ccccc2)C(=O)c2ccccc2S3=O)cc1OCC (centres undefined)	-19%	-10%
CCOc1ccc(S(=O)(=O)N(CC(=O)NCc2ccncc2)c2ccc(C)cc2)cc1	-20%	?
CS(=O)(=O)N1CCc2cc(C(=O)Nc3ccc(Cl)c(C(F)(F)F)c3)ccc21	-15%	-24%
O=C(CNc1ccccc1)NN=C1CCCC1	-4%	2%
CCOc1ccc(/C=N/N2C(C)CCCC2C)cc1 (centres undefined)	-3%	-19%
COc1ccc(OC)c(/C=N/NC(=O)CNC(=O)c2ccc(S(=O)(=O)N3CCCC3)cc2)c1	-9%	i
CC(C)NC(=O)c1csc(COCCO)n1	1%	-4%
CCC(C)c1ccccc1OCCCCN1CCCC1 (centres undefined)	-18%	i
CCCCOc1ccc(C(=O)Nc2onc3c2CCCC3)cc1	-4%	-11%
O=C(CSc1nc2ccccc2nc1Cc1ccc(Cl)cc1)N1CCCCC1	-16%	-15%
CCOC(=O)C1(C)CCN1C(=O)c1ccccc1C (centres undefined)	2%	43%[activator]
O=C(COC(=O)COc1ccccc1Cc1ccccc1)Nc1cccnc1Cl	-8%	i
COc1ccc(OC)c(NC(=O)c2cc3c(s2)-c2ccccc2SC3)c1	-12%	6%
CCOc1ccc2nc(N/C(N)=N/C(=S)Nc3cccc(OC)c3)nc(C)c2c1	0%	i
O=C(CSc1nnc2ccccn12)c1ccccc1	-4%	-9%
COc1ccc(C)cc1Nc1nc2ccccc2c2nnc(C)n12	1%	-1%
CC(NC(=O)C(=O)N/N=C/c1ccc(Cl)cc1)c1ccccc1 (centres undefined)	-7%	i
O=C(NCc1ccccc1Br)C1CCCN(C(=O)N2CCOc3ccccc32)C1 (centres undefined)	-16%	-13%
Cc1cc(=O)n(C(NC(=O)c2ccccc2)C(=O)c2ccccc2)cn1 (centres undefined)	-4%	-8%
Cc1cc(OCC(=O)N2CCC(c3nc4ccccc4s3)CC2)ccc1Cl	1%	-8%
O=C(C[C@@H]1C/C=C\C[C@H](NC(=O)OCC2c3ccccc3-c3ccccc32)C(=O)OC[C@H]2CCCN2C1=O)N[C@H](CO)Cc1ccccc1	-29%	-16%
O=C(N/N=C/c1cc2c(cc1[N+](=O)[O-])OCO2)c1ccccn1	-3%	i
Cc1ccccc1C(=O)NC1CCN(C(=O)Nc2ccccc2Cl)CC1	-20%	-3%
COc1cccc(-c2cc(C(=O)N/N=C/c3ccc(OC)c(COC(C)=O)c3)c3ccccc3n2)c1	-21%	-8%
COc1ccccc1CCNC(=O)c1c(C)nn(CC(C)C)c1Cl	-19%	i
CCc1ccc2oc(-c3cccc(NC(=O)c4ccc(N5CCC(C)CC5)c([N+](=O)[O-])c4)c3)nc2c1	12%	-11%
CSc1ccc(Cn2c(C)c(C(=O)NCc3ccco3)sc2=O)cc1	0%	15%
CC[C@H](C)[C@@H](CO)NC(=O)[C@H]1O[C@@H](n2ccc(N)nc2=O)[C@H](O)[C@@H]1O	6%	18%
Cc1[nH][nH]c(=O)c1C(c1ccc(-c2ccc(Cl)c(C(=O)O)c2)o1)c1c(C)[nH][nH]c1=O	-8%	i
CCN1CCC(n2nccc2NC(=O)c2ccccc2Cl)CC1	-6%	i
CC(=O)Nc1cccc(C(=O)Nc2nc(C)cs2)c1	-6%	i
Oc1ccc(C[C@H]2CNC(=S)N2CCc2cc(C(F)(F)F)cc(C(F)(F)F)c2)cc1	-9%	i

Filtered by structure, the entries above with a CF3 group (two)
SMILES	VACV Venus inh	VACV mCherry inh
CS(=O)(=O)N1CCc2cc(C(=O)Nc3ccc(Cl)c(C(F)(F)F)c3)ccc21	-15%	-24%
Oc1ccc(C[C@H]2CNC(=S)N2CCc2cc(C(F)(F)F)cc(C(F)(F)F)c2)cc1	-9%	i

Next records:
SMILES	VACV Venus inh	VACV mCherry inh
COCC(C)n1c(SCC(=O)Nc2cccnc2Cl)nc2ccccc2c1=O (centres undefined)	-7%	-26%
COCCCN1C(=O)C(=O)/C(=C(/O)c2ccc(S(=O)(=O)N3CCOCC3)cc2)C1c1ccc(OC)cc1 (centres undefined)	-11%	i
CC1CCC(NC(=O)c2ccc(-n3cncn3)c([N+](=O)[O-])c2)CC1 (centres undefined)	-10%	i
CC1=C(C(=O)Nc2cccnc2)C(c2cccc(F)c2)n2nc(SCc3ccccc3F)nc2N1 (centres undefined)	-12%	-21%
N#CC1=C(N)SC(N)=C(C#N)C1c1ccc([N+](=O)[O-])cc1	0%	-7%
Cc1cc(C)cc(NC(=O)NCc2nnc(SCc3ccccc3)n2C)c1	-25%	?
CCN(CC)Cc1csc2ccc(Br)cc12	-6%	.
COC(=O)[C@@]12C[C@@H](CC(=O)N3CCOCC3)C(=O)N(Cc3ccco3)C1=CCC(C)(C)C2	6%	-21%
CC(=O)Nc1ccc(S(=O)(=O)NCc2ccc(C(=O)NCCCN3CCC(C)CC3)cc2)cc1	-8%	i
COc1ccc(S(=O)(=O)N2CCCCC2c2cc(C(=O)Nc3ccccc3Cl)no2)cc1 (centres undefined)	-12%	7%
CCOC(=O)N1CCN(Cc2ccc3c(c2)CN(C(=O)c2ccc4ncccc4c2)CCO3)CC1	-23%	-21%
CCCNS(=O)(=O)c1cccc(C(=O)OCc2cc(=O)oc3cc(OC)ccc23)c1	-28%	?
COc1ccc(COc2cc(-c3cccc(OC)c3)nc3ccc(NC(=O)c4ccc(OC)cc4)cc23)cc1	-11%	i
CC1(C)SC2C(C(=O)O)N=C(Cc3ccccc3)N2C1C(=O)O (centres undefined)	6%	-9%
CNC(=S)Nc1ccc(C)c(NC(=S)NC)c1	5%	-6%
CCOC(=O)[C@@H]1[C@H]2COc3ccccc3[C@@H]2N2C(=O)N(c3ccc(C(F)(F)F)cc3)C(=O)[C@@]12C	-15%	i
Cc1ccc(OCC(=O)Nc2cccc(S(=O)(=O)N3CCCC3)c2)cc1C	-18%	i
O=C(Nc1nc2ccccc2[nH]1)C1CC1	?	-14%
COc1ccc(N2CCN(C(=O)CCS(=O)(=O)c3cc(Br)cc4c3N(C(=O)C3CC3)CC4)CC2)cc1	-14%	-19%
COc1ccc(CCNC(=O)Cn2nnc(-c3ccc(Cl)cc3)n2)cc1OC	-7%	-7%
Cc1ccc(S(=O)(=O)Nc2ccc3cc([N+](=O)[O-])ccc3c2[N+](=O)[O-])cc1	-19%	?
CC(C)(C)c1ccc(C(=O)N2CCC2(C)C(=O)Nc2cnc3ccccc3c2)cc1 (centres undefined)	-21%	3%
CCCCNc1nnc(SCC(=O)c2c[nH]c3ccccc23)s1	-14%	-15%
CCc1ccc(OC(=O)CSc2nnc(-c3ccc(OC)c(OC)c3)o2)cc1	-5%	-9%
Cc1cc(C)nc(NC(=O)c2cc(-c3ccc(C)s3)nc3ccccc23)c1	4%	-13%
COc1ccc(CCNC(=O)CSc2ccccc2)cc1OC	-11%	-1%
CSc1nc(C)cc(Nc2cccc(C(=O)O)c2)n1	-2%	-11%
CCc1nc(N)nc2c1C(=O)CC(C)(C)C2	?	-15%
COc1ccc(-c2cc3nc(C)c(CCC(=O)N4CCN(c5cc(C)ccc5C)CC4)c(C)n3n2)c(OC)c1	?	?
N#Cc1ccc(Oc2ccc(C(N)=O)cc2)cc1C#N	-21%	?

A second format for some results above.
> Cc1cc(C)nc(NC(=O)c2cc(-c3ccc(C)s3)nc3ccccc23)c1
- VACV Venus inh: 4%
- VACV mCherry inh: -13%

> COc1ccc(CCNC(=O)CSc2ccccc2)cc1OC
- VACV Venus inh: -11%
- VACV mCherry inh: -1%

> CSc1nc(C)cc(Nc2cccc(C(=O)O)c2)n1
- VACV Venus inh: -2%
- VACV mCherry inh: -11%

> CCc1nc(N)nc2c1C(=O)CC(C)(C)C2
- VACV Venus inh: ?
- VACV mCherry inh: -15%

Random draw from the library (roughly 0.82% active in at least one column).
